ALR inh: blocks human ALR sulfhydryl oxidase activity; P55789; purified ALR, DTT oxidation, H2O2 HRP-luminol luminescence; inhibition, % (concentration not given with the values); 290,000 compounds, 3.8% hits; AID 485317;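 active = mean and each replicate at 75% or more; inconclusive = only one of the two met; inactive = neither met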;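 note: stock transfer was 7.5 nL into about 7.5 µL; 0% = neutral wells and 100% = wells with inactivated enzyme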
Target sequence (P55789 whole entry, looked up): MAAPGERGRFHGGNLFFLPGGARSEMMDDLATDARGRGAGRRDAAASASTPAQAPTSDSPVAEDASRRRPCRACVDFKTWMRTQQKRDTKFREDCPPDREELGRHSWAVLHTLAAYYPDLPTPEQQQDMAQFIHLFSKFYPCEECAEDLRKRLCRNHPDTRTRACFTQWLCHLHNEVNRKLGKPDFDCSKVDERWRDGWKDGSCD
T cruzi inh: blocks replication of Trypanosoma cruzi | T. cruzi beta-gal in NIH3T3, luminescence, 90 h | inhibition, % (test concentration not listed) | 300,000 compounds, 1.4% hits | AID 1885;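 active = mean inhibition across valid replicates above about 55%, limit read from the data; inconclusive = mean below that limit but half or more replicates reach it; inactive = mean below it, under half of replicates reach it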;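 note: signal also drops with host cell toxicity which is not excluded here; 0% = plate median of DMSO wells and 100% = zero luminescence signal; higher percent means less beta-gal luminescence so fewer parasites; stock transfer was 50 nL into about 50 µL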
Beta cell apopt: blocks beta cell apoptosis; AID 435005; protection from apoptosis, % (test concentration not listed); INS-1E cytokine-induced death, ATP luminescence, 48 h; percent of positive-control rescue, neutral wells zero; 300,000 compounds, 0.8% hits;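 active = all replicates at 75% or more, or half of them and the mean; inconclusive = half reach 75% but not the mean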;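 note: 0% = cytokine-treated negative control wells and 100% = positive control rescue; higher means more ATP so stronger rescue from cytokine killing; wells of about 40 µL received 100 nL stock; the first replicate is given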
Calb FLC: C. albicans growth modulation with fluconazole; C. albicans CaCi-2 (fluconazole-resistant clinical isolate) + fluconazole, Alamar Blue growth, 48 h; growth inhibition, % (concentration not given with the values); 300,000 compounds, 0.57% hits;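 active = most replicates above 75%; inconclusive = exactly half above 75%; inactive = most below 75%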;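 note: all wells also contain fluconazole at 8 µg/ml as a sub-toxic cotreatment; 0% = median of DMSO wells and 100% = median of geldanamycin control wells; wells of about 8 µL received 7.5 nL stock; the first replicate is given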
AF4-AF9 inh: MLL-AF4/AF9 protein interaction inhibition; 350,000 compounds, 0.47% hits; AlphaScreen, biotin-AF4 peptide binding to FLAG-AF9; P42568; AID 651704; inhibition, % at 10 µM;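 active = every replicate reaching a set inhibition limit, whatever the replicate mean, cut at about 25% in these data; inconclusive = mean inhibition reaches that limit but some replicates miss it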;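 note: 0% = plate neutral control median and 100% = total signal loss; the record names both 10 and 1 µM as test concentration; the first replicate is given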
Target sequence (P42568 whole entry, looked up): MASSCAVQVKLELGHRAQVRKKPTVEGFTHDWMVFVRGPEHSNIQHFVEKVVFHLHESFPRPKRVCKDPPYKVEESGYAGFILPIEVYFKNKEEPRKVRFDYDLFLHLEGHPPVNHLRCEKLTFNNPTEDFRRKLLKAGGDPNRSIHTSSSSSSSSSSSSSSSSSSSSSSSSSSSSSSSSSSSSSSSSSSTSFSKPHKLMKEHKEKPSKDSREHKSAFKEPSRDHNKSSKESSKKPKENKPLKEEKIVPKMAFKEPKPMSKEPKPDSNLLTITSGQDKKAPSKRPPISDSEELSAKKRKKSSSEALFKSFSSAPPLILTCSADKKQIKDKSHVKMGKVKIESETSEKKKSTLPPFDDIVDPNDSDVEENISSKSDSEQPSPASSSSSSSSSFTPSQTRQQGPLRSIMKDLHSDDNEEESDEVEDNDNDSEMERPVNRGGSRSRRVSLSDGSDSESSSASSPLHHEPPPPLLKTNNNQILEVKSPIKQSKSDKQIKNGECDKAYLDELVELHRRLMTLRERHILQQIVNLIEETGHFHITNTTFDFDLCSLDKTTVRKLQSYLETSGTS
rRNA inh HTS: inhibitors of bacterial rRNA selective over humanized ribosomes; AID 720706; E. coli WT GFP vs humanized-ribosome RFP mutants, fluorescence, 24 h; stronger effect = lower value; DMSO median 0, no signal -100; GFP signal change (wild-type ribosome), % (test concentration not listed); 350,000 compounds, 1.6% hits;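 active = significant combined selectivity score with lowered wild-type GFP, culture density cut under 30%, mutant RFP and density less affected; inactive = any of these conditions unmet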; note: one replicate is shown; some compounds called inactive have numbers as strong as hits
RanGTP-Impb inh: inhibitors of RanGTP-importin-beta interaction, primary screen, biochemical, FRET, CFP-Ran, YFP-importin-beta, homogeneous. cell-free CFP-Ran/YFP-importin-beta FRET ratio. inhibition, % (concentration not given with the values). 300,000 compounds, 1.1% hits;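 active = most replicates above 15%; inconclusive = exactly half above 15%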;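 note: 0% = DMSO wells and 100% = Ran loaded with GDP instead of GTP; wells of about 40 µL received 100 nL stock; the first replicate is given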
FGF22 binding: binders of recombinant human FGF22 by thermal shift; Q9HCT0; calls only at 9.99 µM; SYPRO orange fluorescence; percent of sucrose octasulfate shift, DMSO zero; 340,000 compounds, 1.5% hits; AID 651658;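 active = melting point raised past a set limit in the mean and every replicate; inconclusive = no clear call; three in four hits are not shown here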
Target sequence (Q9HCT0 whole entry, looked up): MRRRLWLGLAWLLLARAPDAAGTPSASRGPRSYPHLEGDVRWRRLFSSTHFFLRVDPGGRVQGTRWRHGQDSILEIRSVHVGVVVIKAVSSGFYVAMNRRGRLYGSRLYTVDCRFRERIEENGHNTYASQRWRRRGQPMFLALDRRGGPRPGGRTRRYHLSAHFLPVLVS
rRNA inh HTS OD600: also measured in rRNA inh HTS; calls as there; OD600 change, %; measured here: OD600 growth;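 optical density of the mix in the first replicate; 0 = DMSO median and -100 = no signal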
rRNA inh HTS RFP: further read-out of rRNA inh HTS, marked with its call; RFP signal change, %; measured here: RFP humanized mutant strains;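 first replicate; 0 = DMSO median and -100 = no signal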
Active calls of the source: *; i = inactive; ? = inconclusive; nt = no result given; & = joins results of further samples. These rows are one share of the data, so the mix of outcomes need not match the whole.

The line under a structure holds: ALR inh	T cruzi inh	Beta cell apopt	Calb FLC	AF4-AF9 inh	rRNA inh HTS	rRNA inh HTS OD600	rRNA inh HTS RFP	RanGTP-Impb inh	FGF22 binding
1. CCOC(=O)C1CCN(C(=O)C2CCC(=O)N(CC3CCCCC3)C2)CC1 (stereo not drawn)
    -8.9	-3.3	-1.0	-1.7	0.1	11.0	9.6	-1.3	?	i
2. Cn1c(=O)oc2cc(S(=O)(=O)N3CCCC(C(=O)N4CCc5ccccc5C4)C3)ccc21 (stereo not drawn)
    -75.7	-4.1	0.9	-10.1	-0.4	-9.1	-27.4	-1.1	-2.6	i
3. O=c1ccc2ccccc2o1
    -15.5	-12.3	5.8	0.0	-0.4	nt	nt	nt	5.9	i
4. CCOC(=O)c1cc2c(nc1NC(=S)Nc1ccccc1)CC(C)(CC)OC2 (stereo not drawn)
    -0.8	-0.8	1.0	21.1	-2.2	2.0	2.9	-5.0	-4.7	i
5. COc1cccc(-n2c(SCC#N)nnc2-c2cnccn2)c1
    nt	2.6	-3.4	9.0	4.9	17.4	11.2	-6.4	-10.1	i
6. COc1ccc2c(CCNC(=O)c3ccc([N+](=O)[O-])cc3)c[nH]c2c1
    1.2	-9.9	-2.7	-14.7	3.9	1.1	-2.2	-3.7	-0.4	nt
7. Cc1cc(Br)cc(Cl)c1OC(=O)c1ccncc1
    0.8	2.3	6.4	24.8	-2.7	-0.4	2.7	-0.7	2.6	i
8. COc1ccccc1N(CC(=O)NCCSc1ccccc1)S(C)(=O)=O
    -9.0	-5.7	-0.7	21.4	nt	nt	nt	nt	1.4	nt
9. CC(C)=NOC(=O)c1c(C)noc1-c1snnc1C
    5.1	-1.0	1.4	-0.6	-5.6	12.6	0.4	4.1	0.5	i
10. CC1CCN(C(=O)NC(=O)c2ccc(Cl)cc2)CC1
    0.0	-5.0	-2.8	7.7	-1.3	1.3	-0.4	-1.4	-1.6	i
11. O=C(NCCS(=O)(=O)N1CCN(c2ccccc2F)CC1)C1CC(=O)N(c2ccccc2)C1 (stereo not drawn)
    -1.3	14.6	4.0	3.9	-3.2	23.8	10.3	3.2	-22.0	i
12. COc1ccccc1NC(=O)N1CCOCC1
    -1.4	-6.4	1.0	-1.6	-20.6	13.2	19.9	-0.4	3.6	i
13. COc1ccc(C=O)cc1Cn1cnc2c(cnn2C)c1=O
    -3.8	5.2	-9.3	0.0	-2.9	20.1	0.7	0.4	-0.2	i
14. Cc1ccc(S(=O)(=O)NC(CC(=O)n2nc(C)cc2C)c2ccccc2)cc1 (stereo not drawn)
    nt	-0.3	1.1	2.0	nt	nt	nt	nt	-1.5	nt
15. CCCn1nnnc1-c1ccc(Cl)cc1
    -7.0	-6.8	-1.8	-16.4	nt	nt	nt	nt	0.4	nt
16. COc1cccc(C(=O)SC2=NCCS2)c1
    -4.3	-11.7	-9.2	-2.1	-23.5	13.7	6.2	11.1	-0.7	i
17. O=C1NC(=O)C(c2ccc(F)cc2)N1 (stereo not drawn)
    5.6	-19.6	nt	-6.1	-3.5	-1.0	3.2	0.7	3.3	i
18. Cc1ccc(CNC(=O)CC2Sc3ccccc3NC2=O)cc1 (stereo not drawn)
    -13.1	-13.0	-7.2	-4.9	-3.0	11.2	14.1	3.5	nt	i
19. O=C1NC(=O)C(=O)N1
    -10.1	nt	3.1	nt	7.8	nt	nt	nt	nt	i
20. O=C(NCCC1CCCC1)c1cccs1
    -6.5	0.7	2.2	8.3	1.1	9.3	8.2	-0.8	-5.6	i
21. N#CCSCC(=O)Nc1ccc(Br)cc1
    3.4	-13.1	-7.3	13.6	nt	nt	nt	nt	1.4	nt
22. CC1CCc2cccc3c(O)cc(=O)n1c23 (stereo not drawn)
    13.0	5.8	-7.4	-0.5	-6.0	0.8	2.1	0.3	-1.0	i
23. CC(=O)NNC(=S)NC(=O)c1cccc([N+](=O)[O-])c1
    72.8	-28.1	nt	18.3	nt	nt	nt	nt	3.5	nt
24. CCNC(=O)C(=O)NCc1ccncc1
    -41.5	3.3	nt	-3.4	-6.0	2.1	6.8	2.3	-4.4	i
25. Cc1ccc(NC(=O)CCc2nnc3ccc(N4CCN(C)CC4)nn23)cc1F
    1.0	10.7	4.0	20.9	-3.6	0.2	12.3	-2.1	-1.4	i
26. CC(=O)/C(N=Nc1ccc(OC(F)(F)F)cc1)=C(\C)O
    -2.3	9.3	nt	1.0	3.0	4.3	-8.2	-1.0	-4.2	i
27. CCCCNC(=O)c1ccc(CNc2c(N3CCC(C(=O)OCC)CC3)c(=O)c2=O)cc1
    -20.1	-1.9	3.7	2.1	-2.0&2.2	5.7&5.0	11.4&4.2	2.0&-6.6	1.6	i
28. Cc1ccc(OCC(=O)Nc2ccc(O)c(C(=O)O)c2)cc1C
    -4.7	-3.9	-6.2	-0.2	-7.4	-4.7	1.6	0.1	2.2	nt
29. O=C(CN(C(=O)CSc1nc2ccccc2o1)c1ccccc1)NC1CCCCC1
    -0.9	7.9	nt	-1.9	nt	nt	nt	nt	1.6	nt
30. COc1ccc(C(C)C)cc1S(=O)(=O)Nc1ccncc1
    -0.6	7.9	-5.6	26.5	-1.3	6.0	5.5	0.8	-3.9	i
31. Cc1cc(C)c(NC(=O)CSc2nc3ncc(Br)cc3[nH]2)c(C)c1
    -2.8	0.5	3.3	0.4	0.2	-1.3	-1.4	1.0	4.4	i
32. COc1ccc(N/C=C(\C(C)=O)c2ccc(OC)c(OC)c2)cc1OC
    31.3	3.9	-3.8	-22.6	3.3	3.3	0.9	0.3	0.4	i
33. CCC(=O)N1CCN(c2cc(N3CCCC3)c(F)cc2[N+](=O)[O-])CC1
    -2.0	3.5	-3.1	-2.5	9.8	-4.5	-8.3	-4.3	-4.5	i
34. CCOc1ccccc1NC(=O)C1CCN(C(=O)c2cccs2)CC1
    -1.7	4.5	-4.8	3.1	-0.7	-6.0	-4.5	-0.8	2.8	i
35. Cc1cccc(OCC(O)CN2CCN(C3CCCCC3)CC2)c1 (stereo not drawn)
    nt	-2.6	-0.7	2.3	nt	nt	nt	nt	6.1	nt
36. CC(C)N(C(=O)CSc1nc(Cc2ccccc2)nc2ccccc12)C(C)C
    nt	41.0	-2.5	-5.4	-0.1	2.3	3.0	-0.7	-0.6	i
37. CSc1ncccc1C(=O)OCC(=O)N1CC(=O)Nc2ccccc21
    0.2	nt	-6.2	nt	-2.5	20.1	28.4	6.0	nt	i
38. COc1ccc(Cl)cc1NC(=O)CN(C)C(=O)CNC(=O)C12CC3CC(CC(C3)C1)C2
    -4.0	1.7	-1.7	-34.9	nt	nt	nt	nt	2.2	nt
39. CC1(C)c2[nH]c3ccccc3c2C[C@@H]2C(=O)N(Cc3ccccc3)C(=O)N21
    -8.2	-6.2	-3.9	4.6	5.3	-18.6	-34.5	-2.7	1.4	i
40. COc1ccc(C2/C(=C(/O)c3ccc4c(c3)CC(C)O4)C(=O)C(=O)N2CCCN2CCOCC2)cc1OC (stereo not drawn)
    8.6	-9.9	-7.5	-0.1	0.0	6.8	9.3	1.0	1.2	i
41. CCOc1cccc(CN2CCCC(N3CCc4ccccc4C3)C2)c1O (stereo not drawn)
    nt	42.1	nt	-8.5	10.6	8.1	1.6	-0.5	-3.2	i
42. CCN1CCSc2ccc(C(=O)NCc3cccc(Br)c3)cc21
    17.6	30.3	-0.4	8.3	-18.0	6.2	-15.7	22.0	5.3	i
43. O=S(=O)(O)c1nc2ccccc2n1Cc1ccc(Cl)cc1Cl
    4.9	-6.5	-0.3	6.3	nt	nt	nt	nt	1.8	nt
44. CC(C)c1ccc(NC(=O)CSc2nc(=O)[nH]c3c2CCCC3)cc1
    -335.0	21.8	2.9	1.8	-3.0	4.3	0.5	-2.3	0.0	i
45. CCOC(=O)c1c(C)nc(-c2ccccc2)nc1NC(C)=O
    -19.1	-0.1	nt	-16.2	nt	nt	nt	nt	-5.1	nt
46. Cc1cc(C)nc(Oc2ccc([N+](=O)[O-])cc2)n1
    -7.7	-7.0	2.6	-0.4	-5.3	10.7	-0.3	3.1	-0.2	nt
47. Cc1ccc(C)c(CNS(=O)(=O)c2ccc3c(c2)C(C)(C)C(=O)N3C)c1
    -3.8	-0.3	-2.9	2.6	-1.4	-5.1	-7.9	2.0	6.2	i
48. COC(=O)c1cc(NC(=O)CC2C(=O)NCCN2C(=O)c2ccccc2)cc(C(=O)OC)c1 (stereo not drawn)
    -16.2	1.4	-3.3	-2.5	nt	nt	nt	nt	1.9	nt
49. Cc1ccccc1OCC(=O)Nc1ccc2c(c1)C(=O)N(CCC(=O)O)C2=O
    0.8	-10.3	nt	0.5	1.1	-1.3	2.9	1.1	2.4	i
50. CC(Oc1cccc2cccnc12)C(=O)N/N=C/c1ccc2c(c1)OCO2 (stereo not drawn)
    -3.7	30.8	0.0	-3.0	-2.4	1.6	-6.9	2.0	-3.0	i

Remaining list, next part
The line under a structure holds: ALR inh	T cruzi inh	Beta cell apopt	Calb FLC	AF4-AF9 inh	rRNA inh HTS	rRNA inh HTS OD600	rRNA inh HTS RFP	RanGTP-Impb inh	FGF22 binding
51. COc1cccc(NC(=O)C2CCCN2C(=O)Nc2ccccc2)c1 (stereo not drawn)
    -0.3	9.2	-3.6	-0.3	0.4	1.5	3.3	-0.2	-0.1	i
52. CC(CN1CCCCC1)OC(=O)c1ccc2c(c1)OCCO2 (stereo not drawn)
    -1.9	1.5	-3.5	2.2	-1.4	4.6	2.5	-2.1	-0.5	i
53. CCCC(c1nnnn1Cc1ccc(F)cc1)N1CCN(CC)CC1 (stereo not drawn)
    -10.0	-11.3	1.9	20.5	0.1	11.6	5.1	-3.7	-2.5	nt
54. COC(=O)CCSCC(=O)Nc1cc(C)on1
    nt	-3.1	-6.1	10.5	nt	nt	nt	nt	0.6	nt

From PubChem BioAssay
